Mtb hypoxia inh – reduces hypoxia-regulated biosensor signal in M. tuberculosis; M. tuberculosis hypoxia-regulated fluorescent reporter, fluorescence; fluorescence inhibition, % (concentration not given with the values); actives 0.1% (n = 300,000);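 active = 35 to 45% if threefold the growth effect, above 45% if 1.5-fold the growth effect; inactive = the rest, general growth blockers included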;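 also: wells of about 50 µL received 100 nL stock; 0% = vehicle wells and 100% = reference inhibitor wells; whole bacteria with a GFP reporter of the hypoxia response; strong numbers were not always called active; many hits fall short of the cut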
Autofluor counter – compound fluorescence in toxin protease inhibitor counterscreen. fluorescence intensity (no concentration beside the values). actives 3.1% (n = 360,000). AID 624483. compound autofluorescence counterscreen, microsphere flow cytometry; active compounds read high;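 active = at least 3 SD above the mean of all compounds, about 16000 in these data; inconclusive = too few beads counted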;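 also: 100 nL of 1 mM stock went into each well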
Sa ugtP lethal – compounds lethal to S. aureus RN4220 ugtP deletion mutant; OD600 growth, 16 h; some inactives read as strong as hits; growth inhibition, % (no concentration beside the values); actives 0.54% (n = 330,000); AID 1259309;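 active = z-score under -3 and OD600 up to 0.15 on both plates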;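 also: plate controls were untreated wells for no effect and antibiotic for full effect; wells of about 80 µL received 100 nL stock; the first replicate is given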
PrP 5UTR inh – inhibition of PrP 5' UTR reporter expression; cell-based PrP 5' UTR mRNA reporter, plate reader; actives 0.35% (n = 340,000); inhibition, % (concentration not given with the values);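 active = every replicate at 50% or more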;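 also: 0 = median of the neutral control wells; tested in H4 reporter cells; numbers are from one replicate; inactives centre near -14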
BJeLR lethal – BJeLR cell viability loss. BJeLR (HRASV12) viability, CellTiter-Glo ATP luminescence, 48 h; reference of the scale not given here. inhibition, % (concentration not given with the values). actives 0.17% (n = 300,000);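 active = replicate mean above 50%; inconclusive = above 50% but judged a plate artefact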;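 also: 50 nL library stock added to about 25 µL; numbers are from one replicate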
RN4220 kill – S. aureus RN4220 growth inhibition; OD600, 16 h; inhibition, % (test concentration not listed); actives 0.33% (n = 330,000); AID 1259311;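 active = z-score of -3 or lower and OD600 up to 0.18 on both plates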;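 also: plate controls were untreated cells for no effect and reference antibiotic for full effect; stock transfer was 100 nL into about 80 µL; one replicate is shown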
Mtb hypoxia inh growth – further read-out of Mtb hypoxia inh, marked with its call; growth inhibition, %; measured here: M. tuberculosis growth (absorbance);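 0% = vehicle and 100% = reference antibiotic; read after six days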
The depositor's hits bear a star; ? = inconclusive; . = not tested or not shown.

compound,RN4220 kill,PrP 5UTR inh,Mtb hypoxia inh growth,Sa ugtP lethal,Mtb hypoxia inh,Autofluor counter,BJeLR lethal
O=C(COc1ccc(S(=O)(=O)NC2CCCCC2)cc1)N1CCN(c2ccc(F)cc2)CC1,-15,-24,5,-5,8,5406,.
CCOc1ccc(S(=O)(=O)Nc2cc(NS(=O)(=O)c3ccc(OCC)cc3)cc(C(=O)O)c2)cc1,4.7,-20,0,-2,3,3052,.
COc1ccc(NC(=O)CN(C)CC(=O)Nc2cccc(C(C)=O)c2)cc1,3.4,-10,3,1,-6,3730,-1
CCCCN=Cc1c(O)n(-c2c(C)cc(C)cc2C)c(=O)[nH]c1=O,6.5,-47,9,-1,-1,5674,10
CN1CCN(c2nc(Nc3ccccc3)nc(N)c2[N+](=O)[O-])CC1,3.2,-22,9,-7,-3,4052,-3
Cc1cccc(C)c1NC(=O)C(c1ccccc1)N1CCN(C(=O)c2ccco2)CC1 (stereo unspecified),2.1,-18,6,2,-3,2084,-1
COc1ccc(C(=O)/C=C/c2ccccc2)c(OC)c1,0.4,-53,.,6,.,5659,13
Cc1ccc(Cn2nnc3c(=O)n(CC(=O)OCc4ccccc4)cnc32)cc1,-2.1,-10,5,7,4,10071,-3
CCc1cccc(CC)c1-n1c(SCC(=O)N2CCc3ccccc3C2)nnc1-c1cccnc1,-0.3,-17,15,7,0,36354*,-2
Cc1cc(C(=O)NN=Cc2cccnc2)c(C)o1,3.1,.,5,-9,4,.,.
CC(NC(=O)c1cc(Br)ccc1Br)c1ccccc1 (stereo unspecified),13,.,12,2,15,.,3
CC(C)NC(=O)CN1C(=O)C(=O)c2ccccc21,2.0,-26,14,-4,1,22994*,-14
O=C(C1=NN(c2ccccc2)C2C(=O)N(c3ccccc3Cl)C(=O)C12)c1ccccc1 (stereo unspecified),.,-6,.,.,.,10033,14
COCc1cc(=O)[nH]c(/N=C(\N)Nc2ccccc2C)n1,.,-8,.,.,.,3016,0
N#CC1=C(N)Oc2c(ccc3cccnc23)C1c1cccnc1 (stereo unspecified),0.0,-13,13,0,10,4089,9
CCC(C)[C@H](NC(=O)Nc1cccc(Br)c1)C(=O)OC (stereo partly specified),3.7,-17,-1,4,-2,2592,6
O=C(NN=Cc1ccc(O)c(O)c1)c1ccc(CSc2cccc3cccnc23)cc1,6.0,.,3,-5,13,.,.
CN(C)C(=O)Oc1ccc2ccccc2c1Cl,8.1,-3,5,8,4,23669*,-3
COc1ccc(/C=N/NC(=O)c2ccn[nH]2)cc1CN1CCOCC1,.,-13,.,.,.,4484,-6
COc1cc(NS(=O)(=O)c2ccc(F)cc2)c(OC)cc1NC(C)=O,-14,-27,2,-4,5,2824,11
CS(=O)(=O)N(CC(=O)NCCSCc1ccccc1Cl)c1ccccc1F,1.9,-15,1,1,0,3844,4
NNC(=O)c1nc(-c2ccccc2)cc(-c2ccccc2)n1,6.5,-27,9,-4,8,3695,-2
N#C/C(=C\c1ccc(N2CCOCC2)o1)C(=O)NCC1CCCO1 (stereo unspecified),1.8,-9,.,1,.,2586,1
CCCC(=O)N/N=C1\CS(=O)(=O)N(C)c2ccsc21,.,-12,.,.,.,1913,-1
CCCCCCCNC(=O)C1(CC2CC(c3cccc(Br)c3)=NO2)CCN(C(=O)Cc2ccc(F)cc2)CC1 (stereo unspecified),-3.5,-17,3,-18,5,3203,.

Structural class: those above with a furan ring, fused or not
compound,RN4220 kill,PrP 5UTR inh,Mtb hypoxia inh growth,Sa ugtP lethal,Mtb hypoxia inh,Autofluor counter,BJeLR lethal
Cc1cccc(C)c1NC(=O)C(c1ccccc1)N1CCN(C(=O)c2ccco2)CC1 (stereo unspecified),2.1,-18,6,2,-3,2084,-1
Cc1cc(C(=O)NN=Cc2cccnc2)c(C)o1,3.1,.,5,-9,4,.,.
N#C/C(=C\c1ccc(N2CCOCC2)o1)C(=O)NCC1CCCO1 (stereo unspecified),1.8,-9,.,1,.,2586,1

The listing continues.
compound,RN4220 kill,PrP 5UTR inh,Mtb hypoxia inh growth,Sa ugtP lethal,Mtb hypoxia inh,Autofluor counter,BJeLR lethal
C=CC(CC(C)C)N(Cc1ccccc1)S(=O)(=O)N(Cc1ccc(OC)cc1)C(C=C)CC(C)C (stereo unspecified),-3.0,.,8,-3,6,.,.
O=[N+]([O-])c1ccc(N2CCCC2)cc1NCc1ccccc1,-1.0,-2,.,0,.,2797,11
CCOC(OCC)P(=O)(c1ccccc1)c1ccccc1,5.4,-3,11,-5,7,9125,-9
O=C(c1cccs1)N1CCN(C(=O)c2ccco2)c2ccccc2C1,2.3,0,.,8,.,4663,-4
NC(=O)CC(NC(=O)Cc1cccc2ccccc12)c1ccc(N2CCC(N3CCCCC3)CC2)c([N+](=O)[O-])c1 (stereo unspecified),10,6,4,1,12,3973,-7
CCCCCCS(=O)Cc1ccccc1 (stereo unspecified),0.3,-5,25,10,24,4444,2
Cc1ccnc(Cc2ccccc2)n1,2.3,-5,3,2,1,2906,7
NCCc1c[nH]c2ccc(F)cc12,1.9,-5,.,-3,.,.,5
O=c1c(C/C=C/c2ccccc2)c(O)ccn1Cc1cccc(Cl)c1,7.7,-17,9,3,2,3219,0
Cc1ccc2nc(NC(=O)COC(=O)c3ccc(Br)o3)sc2c1,-6.8,-30,5,-3,17,3653,.
CCCCNS(=O)(=O)c1ccc(OC)cc1,6.2,1,13,5,11,3524,-4
CC(C)(Cc1ccc(O)cc1)NC(=O)CC(=O)N/N=C/c1ccc([N+](=O)[O-])cc1,.,-20,.,.,.,2082,2
O=C(Cc1ncc(C(F)(F)F)cc1Cl)NCc1cccnc1,1.3,-7,8,3,0,3573,-5
O=C(c1ccc([N+](=O)[O-])s1)N1CCN(c2cccc(Cl)c2)CC1,46,-14,-1,28,4,10538,1
COc1ccc(-c2ccc3c(c2)S(=O)(=O)c2cccc(C(=O)NCc4ccccc4Cl)c2C3=O)cc1OC,10,1,-3,9,7,3782,.
Clc1ccc(-c2nc3ccccn3c2CN2CCSCC2)cc1,6.0,-20,-1,2,1,4301,3
COc1cccc(C=NNC(=O)c2sc(N)nc2C)c1OC,2.9,.,10,4,4,.,.
Cc1cccc(-n2ncc3c(NCc4cccs4)ncnc32)c1,-10,-104,3,-7,2,6129,-2
Cc1cccc(C)c1NC(=S)NN=Cc1ccc(OCCC(C)C)cc1,4.7,.,4,-2,11,.,.
CC1CC(C)CN(C(=O)CSc2ccsc2[N+](=O)[O-])C1 (stereo unspecified),-2.7,-13,1,-17,1,1959,4
CNC(=S)NCc1ccc2[nH]c3c(c2c1)CCCC3,-0.2,-10,15,11,4,4156,-5
Cc1ccc(/C=N/NC(=O)CNC(=O)c2cccs2)o1,.,-26,.,.,.,3072,-2
COc1ccccc1CNC(=O)CN1C(=O)NC2(CCCCCCC2)C1=O,2.7,-23,15,4,7,3555,.
Oc1cccc(C=NNc2nn3cnnc3c3ccccc23)c1,-1.2,.,-2,-6,-3,.,.
COc1ccc(C)cc1-n1nnnc1SCC(=O)NNC(=O)c1ccc([N+](=O)[O-])cc1,3.9,-21,8,5,-8,2634,7
CC(C(=O)O)N1C(=O)C2C3CC(C2C1=O)C1C(c2ccccc2)c2sc(=O)[nH]c2SC31 (stereo unspecified),3.0,-13,2,13,9,2085,-16
O=[N+]([O-])c1ccc(S(=O)(=O)N2CCC3(CC2)OCCN3S(=O)(=O)c2cccs2)cc1,8.0,-6,3,3,8,.,6
CCCCCCCCC(=O)NCc1ccc(O)c(OC)c1,3.3,-20,9,-2,3,6035,.
COc1cc(/C=C/C(=O)O)cc(S(=O)(=O)Nc2ccc3nc(SC)sc3c2)c1OC,15,-14,-2,8,-5,4315,1
CC12CCC(C(=O)N(CCCCN3CCN(c4ccccn4)CC3)C1=O)C2(C)C (stereo unspecified),7.6,-14,-5,12,8,3824,3
COc1ccc(CNC(=O)c2ccc(-c3ccccc3)cc2)cc1,-1.6,-44,4,0,11,2882,0
C#CC(C)(C)NC(=O)c1ccc(-c2ccccc2F)cc1,0.3,-35,4,12,6,3677,8
COc1ccc2[nH]c3c(c2c1)CCNC3(C)CCc1ccc(Cl)nc1 (stereo unspecified),0.4,-65,0,-6,8,3939,3
CCC(=O)Nc1ccc(C(C)=NNC(=O)c2ccc(OC)cc2)cc1,-5.2,.,-2,-1,2,.,.
CC=C1C[N+]2(C)CCC34C(=C(C=O)C1CC32)Nc1ccccc14 (stereo unspecified),4.9,.,5,5,7,.,.
O=C(NCCCNC(=O)c1ccc(Cl)cc1Cl)c1cnccn1,-4.2,-7,-1,8,0,5553,7
CC(=O)N1CCC(C(=O)Nc2ccc(S(=O)(=O)N3CCCCC3)cc2)CC1,2.5,37,-4,7,9,6035,1
Cn1nnnc1P(=O)(c1ccccc1)c1ccccc1,-3.6,8,8,2,-3,11302,-8
Cc1ccccc1-n1c(O)c(/C=N/NC(=O)c2ccccc2O)c(=O)[nH]c1=S,7.8,-6,-3,1,17,4676,-3
Cc1cc(Nc2ccccc2)nc2cc(O)ccc12,1.1,-39,-3,4,-34,4084,-7
O=C(NCc1ccccc1)[C@]1(C(F)(F)F)C[C@H](CCc2ccccc2)CCCO1,.,-14,.,.,.,3647,15
O=C(CNC(=O)c1ccco1)Nc1ccc2c(c1)OCCO2,0.8,22,-10,3,-2,?,1
COc1ccc(S(=O)(=O)Nc2ccc3c(c2)OCO3)cc1C,6.5,-22,-4,1,0,4257,3
COc1ccc(-c2n[nH]c(C)c2-c2ccc(OC)c(OC)c2)c(O)c1,16,-11,3,13,11,2217,4
CN(CCC#N)C(=O)CSc1nc2scc(-c3ccccc3)c2c(=O)[nH]1,7.6,-3,12,8,1,2536,1
CCN(CC)CCCNC(=S)N1CCN(c2nc(-c3ccc(F)cc3)cs2)CC1,-5.3,-10,8,18,8,4039,0
Nc1ccccc1C(=O)Nc1cccc2ccccc12,7.4,-69,2,10,6,3577,5
Cc1cc(C)n2cc(CSCc3ccco3)nc2n1,1.4,-15,-1,-5,-13,3245,-2
CCCNC(=O)CCNC(=O)[C@H](O)C(C)(C)CO,25,-8,4,38,3,3643,.
O=C(O)COc1ccccc1/C=N/NC(=O)CN1CCN(Cc2ccccc2Cl)CC1,.,-2,.,.,.,4106,-6

The list goes on.
compound,RN4220 kill,PrP 5UTR inh,Mtb hypoxia inh growth,Sa ugtP lethal,Mtb hypoxia inh,Autofluor counter,BJeLR lethal
Cc1cccc(NS(=O)(=O)c2ccc(-c3cnc(C4CC4)o3)cc2)c1C,6.1,79*,-18,-13,-16,4721,53*
COC(=O)Cn1ncn2c(cc3oc(C)cc32)c1=O,3.7,-47,5,0,1,2941,3
Cc1cc(C)n(-c2ccc(NC(=O)C3CCCCN3C(=O)c3occc3C)cc2)n1 (stereo unspecified),0.5,-38,12,6,5,5775,0
COc1cccc(N2CCN(Cc3nc(N)nc(Nc4ccccc4)n3)CC2)c1,15,0,5,-11,4,9286,-2
CC(C)(C)c1csc(NC(=O)c2ccc(Br)o2)n1,5.8,-48,-4,-16,9,5213,0
CCOc1ccc(OCc2ccc(C(=O)N3CCCC3)o2)cc1,0.7,-14,7,7,-1,13610,25
CC1CCCCC1NC(=O)/C(C#N)=C/c1ccc(OCC(N)=O)cc1 (stereo unspecified),7.5,-24,11,1,3,8979,4
COC(=O)c1ccc(/C=C/C(=O)OCC(=O)Nc2cc(C)on2)cc1,0.3,-17,10,3,13,3547,.
Cc1nn(-c2ncc(C(F)(F)F)cc2Cl)c(=O)n1-c1c(F)cccc1F,3.6,-12,5,0,6,2401,-2
Cc1ccc(S(=O)(=O)c2nc(-c3ccccc3Br)oc2N(C)C)cc1,1.8,-19,11,-4,2,5963,1
O=C(NCCO)c1ccc2nc(-c3ccco3)c(-c3ccco3)nc2c1,6.1,-13,2,10,2,4533,1
CCNc1nc(NC(C)C)nc(OCCOC(=O)Nc2ccccc2)n1,6.5,-11,-3,-8,-11,9110,-4
COc1ccc(-c2cccc(NS(=O)(=O)c3ccccc3[N+](=O)[O-])c2)nn1,6.7,-13,4,3,-1,?,5

Source: PubChem BioAssay (several laboratories)
